Source: PubChem
Bst PK mod: Pyruvate Kinase; partly purified Bacillus stearothermophilus pyruvate kinase, luminescence ATP production; ribose 5-phosphate activator present at AC10; Potency, µM; 1.2% of 51,000 active; in the data active means potency below about 11 µM; inconclusive means mostly about 12 µM to 25 µM; inactive means weaker than that;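 the screen sought inhibitors and activators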;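 note: potency is the fitted concentration of half-maximal effect; scaled between full activation by ribose 5 phosphate and full inhibition by luteolin; about four in five hits inhibit and the cells do not say which; series up to 57 µM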
YjeE inh: qHTS Assay for Inhibitors of YjeE. tRNA threonylcarbamoyladenosine biosynthesis protein TsaE (Escherichia coli (strain …. purified YjeE, fluorescence polarisation of a bound ADP probe. Potency, µM. 0.05% of 71,000 active. AID 605, 2007; active = well fitted falling curve; inconclusive = weaker or top-dose-only fall, or a rising curve; inactive = flat or poorly fitted curve;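 note: top concentration of the series not given in the record; excess ADP was the control for the full effect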
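Purified YjeE (10 uM) with BODIPY Texas Red-labeled ADP probe (2 uM); compounds pin-transferred, 15 min at room temperature. Binding inhibition read as decreased fluorescence polarization; ADP titration as control.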
* marks the source's active call; other numbers are inactive results; i = inactive; · = no result given. This is a subset. The share of hits here may be higher or lower than overall.

#1 O=c1c2cc(N3CCOCC3)ccc2[nH]c(=S)n1CCCN1CCCC1
#2 COc1ccc(-n2c(Cc3cccn3C)nnc2SCC(=O)Nc2cccc(C)c2C)cc1
#3 CCOc1ccc(NC(=O)C2CC=CCC2C(=O)O)cc1 (centres undefined)
#4 CCOC(=O)N1CCN(C(=O)COc2ccccc2OC)CC1
#5 CN(C)S(=O)(=O)c1ccc(C(=O)Oc2cc(=O)[nH]c3ccccc23)cc1
#6 CCc1c(O)nc(SCc2ccccc2)n(C(C)CC)c1=O (centres undefined)
#7 COc1ccc(-c2cc(C(=O)Nc3c(C)nn(Cc4ccccc4Cl)c3C)no2)cc1
#8 CCN(CC)C(NC(=O)c1ccccc1)C(=O)c1ccccc1 (centres undefined)
compound no.	1	2	3	4	5	6	7	8
Bst PK mod	>57	·	>57	·	>57	·	>57	>57
YjeE inh	i	i	i	i	i	i	i	i

#9 COC(=O)c1ccc(C(NC(=O)c2ccccc2)[C@]2(C)C[C@H]2C2CCCCC2)cc1 (some centres undefined)
#10 CC(=O)Cc1nsc(NC(=O)C2Cc3ccccc3C(=O)O2)n1 (centres undefined)
#11 Cc1ccc(-n2c(Cc3cccn3C)nnc2SCC(=O)NC2CCCCC2)cc1
#12 O=C(O)C1C2C=CC(C2)C1C(=O)NCc1ccoc1 (centres undefined)
#13 C=CCNC(=O)C1CC=CCC1C(=O)O (centres undefined)
#14 O=C(C1CC(=O)N(C2CCCC2)C1)N1CCC(Cc2ccccc2)CC1 (centres undefined)
#15 COc1cc(NC(=O)c2ccc(Br)o2)ccc1NC(=O)C(C)C
#16 COc1ccc(Cn2nnc3c(=O)[nH]c(C(=O)NCCc4ccc(F)cc4)nc32)cc1OC
compound no.	9	10	11	12	13	14	15	16
Bst PK mod	·	·	>57	>57	·	>57	>57	·
YjeE inh	i	i	i	i	i	i	i	i

#17 O=c1c(-c2ccc(O)cc2)coc2cc(O)ccc12
#18 O=C(CSc1nnc(CNC(=O)c2cccs2)o1)NC1CCCCC1
#19 CCn1c(C(C)NC(C)=O)nc2ccccc21 (centres undefined)
#20 O=C(Nc1ccc(OC(=O)c2ccncc2)cc1)c1ccncc1
#21 CCOC(=O)c1cc2c(=O)n3ccccc3nc2n(CCCOC)c1=NC(=O)c1cccnc1
#22 CCN(CC)c1ccc(NC(=O)c2ccc(NC(=O)C3CCCO3)cc2)c(C)c1 (centres undefined)
#23 CCOC(=O)c1ccc(CNC(=O)C(Cc2c[nH]c3ccccc23)NC(C)=O)o1 (centres undefined)
#24 CCOC(=O)c1c(C)[nH]c2ccc(O)cc12
compound no.	17	18	19	20	21	22	23	24
Bst PK mod	·	>57	·	>11	>57	>11	>57	·
YjeE inh	i	i	i	i	i	i	i	i

#25 O=C(NCc1ccco1)C(c1ccc(F)cc1)N(Cc1cccnc1)C(=O)Cn1nnc2ccccc21 (centres undefined)
#26 CCOCCc1nnc(NC(=O)Cc2ccccc2)s1
#27 O=C(c1ccco1)N1CCN(S(=O)(=O)c2cccs2)CC1
#28 O=C(Nc1ccccc1N1CCOCC1)c1ccc2ccccc2n1
#29 Fc1ccc(-c2nnc3ccc(N4CCc5ccccc5C4)nn23)cc1
#30 Cc1ccc(OCC(=O)Nc2ccc(-c3nnc(-c4ccco4)o3)cc2)cc1
#31 Cc1ccc2cc(CN(CCN3CCOCC3)C(=O)NCc3ccccc3)c(=O)[nH]c2c1C
#32 Cc1c(NC(=O)c2coc(=O)c(Br)c2)c(=O)n(-c2ccccc2)n1C
compound no.	25	26	27	28	29	30	31	32
Bst PK mod	>57	>57	>57	i	·	>57	>57	>26
YjeE inh	i	i	i	i	i	i	i	·

#33 C=CCn1c(Cc2csc(N)n2)nnc1SCc1ccc(C(=O)OC)cc1
#34 O=C(O)c1cc(=O)c2c(OCC(O)COc3cccc4oc(C(=O)O)cc(=O)c34)cccc2o1
#35 Cc1ccc(CS(=O)(=O)CCC(=O)NCCCOC(C)C)cc1
#36 COc1ccc(NS(=O)(=O)c2cc(C)ccc2OC)cc1OC
#37 COc1ccc(-c2csc3nc(C)n(-n4cccc4)c(=O)c23)cc1
#38 O=S1(=O)CC(N2CCCCC2)C(N2CCCCC2)C1 (centres undefined)
#39 COC(=O)CC(=O)CSc1nc2c(cc1C#N)CCC2
#40 C[N+]1(C)CCO[C@](O)(c2ccccc2)C1
compound no.	33	34	35	36	37	38	39	40
Bst PK mod	>57	>26	>57	>57	i	>57	·	·
YjeE inh	i	i	i	i	i	i	i	i

#41 CC(=O)N(C(C)=O)c1c(C#N)c(C)n(-c2ccccc2)c1C(=O)c1ccccc1
#42 O=C(NC1CCCC1)C1CCCN1C(=O)Nc1ccc(Cl)cc1 (centres undefined)
#43 Cc1oc(C(=O)O)cc1COc1ccccc1Cl
#44 CCOC(=O)CCC(NC(=O)c1ccc(NCN2C(=O)c3ccccc3C2=O)cc1)C(=O)OCC (centres undefined)
#45 O=C(NCCc1ccc(Cl)cc1)c1ncn[nH]1
#46 COc1ccc(N2C(=O)CN=C2Nc2nc(C)cc(C)n2)cc1
#47 C=CCN1C(=O)NC2(CCCCC2)C1=O
#48 NS(=O)(=O)c1ccc(NC(=O)CSC2CCCCC2)cc1
compound no.	41	42	43	44	45	46	47	48
Bst PK mod	>57	>57	>57	·	>57	>26	·	>57
YjeE inh	i	i	i	i	i	·	i	i

Part of the list above, with bars between the fields.
cpd | Structure | Bst PK mod | YjeE inh
47 | C=CCN1C(=O)NC2(CCCCC2)C1=O | · | i
48 | NS(=O)(=O)c1ccc(NC(=O)CSC2CCCCC2)cc1 | >57 | i

Going on with the list:
#49 CCCCCOC(=O)C1[C@H]2C(=O)N(Cc3cccs3)C[C@]23C=C[C@H]1O3 (some centres undefined)
#50 CS(=O)(=O)N1CCC(C(=O)Nc2ccc(OCc3ccccc3)cc2)CC1
#51 Cc1c(C(=O)NCCCN2CCOCC2)sc2nc(-c3ccccc3)cn12
#52 Cc1nnc(SCC(=O)c2cc(C)n(-c3ccc4c(c3)OCO4)c2C)s1
#53 Cn1c(=O)c2c(nc(Br)n2CCCc2ccccc2)n(C)c1=O
#54 O=C(COCc1nc2ccccc2c(=O)[nH]1)NC1CCCC1
#55 CCN1CCN(C(c2cccs2)C(C)NC(=O)c2ccccc2OC)CC1 (centres undefined)
#56 CC1CCN(S(=O)(=O)c2ccc(F)c(C(=O)O)c2)CC1
compound no.	49	50	51	52	53	54	55	56
Bst PK mod	>57	>57	·	>57	>57	>57	·	>57
YjeE inh	i	i	i	i	i	i	i	i

Some of the entries so far, with two lines to a compound:
Values in the order: Bst PK mod | YjeE inh
41) CC(=O)N(C(C)=O)c1c(C#N)c(C)n(-c2ccccc2)c1C(=O)c1ccccc1
  >57 | i
42) O=C(NC1CCCC1)C1CCCN1C(=O)Nc1ccc(Cl)cc1 (centres undefined)
  >57 | i
43) Cc1oc(C(=O)O)cc1COc1ccccc1Cl
  >57 | i
44) CCOC(=O)CCC(NC(=O)c1ccc(NCN2C(=O)c3ccccc3C2=O)cc1)C(=O)OCC (centres undefined)
  · | i
45) O=C(NCCc1ccc(Cl)cc1)c1ncn[nH]1
  >57 | i
46) COc1ccc(N2C(=O)CN=C2Nc2nc(C)cc(C)n2)cc1
  >26 | ·
47) C=CCN1C(=O)NC2(CCCCC2)C1=O
  · | i
48) NS(=O)(=O)c1ccc(NC(=O)CSC2CCCCC2)cc1
  >57 | i
49) CCCCCOC(=O)C1[C@H]2C(=O)N(Cc3cccs3)C[C@]23C=C[C@H]1O3 (some centres undefined)
  >57 | i
50) CS(=O)(=O)N1CCC(C(=O)Nc2ccc(OCc3ccccc3)cc2)CC1
  >57 | i
51) Cc1c(C(=O)NCCCN2CCOCC2)sc2nc(-c3ccccc3)cn12
  · | i
52) Cc1nnc(SCC(=O)c2cc(C)n(-c3ccc4c(c3)OCO4)c2C)s1
  >57 | i
53) Cn1c(=O)c2c(nc(Br)n2CCCc2ccccc2)n(C)c1=O
  >57 | i

(next part)
#57 Cc1c(Br)c(C(F)(F)F)nn1CC(=O)NCC1CCCO1 (centres undefined)
#58 Cc1csc(NC(=O)CSc2nc(C(C)C)nc3c2c(=O)n(C)c(=O)n3C)n1
#59 CCOCCCNC(=O)C1CCC(CNS(=O)(=O)c2cccc3nsnc23)CC1 (centres undefined)
#60 CC/C(O)=C(/C#N)c1nnc2n1CCCCC2
#61 CCn1ccnc1C[C@@H]1COc2ccccc2O1
#62 Cc1ccc(S(=O)(=O)NCc2cccc([N+](=O)[O-])c2)cc1
#63 COc1ccc(OC)c(NC=C2C(=O)OC3(CCCCC3)OC2=O)c1
#64 COc1ccc(NC(=O)c2cc3c(=O)n(C)c4ccccc4c3n2C)cc1OC
compound no.	57	58	59	60	61	62	63	64
Bst PK mod	·	·	>57	>57	·	·	·	·
YjeE inh	i	i	i	i	i	i	i	i

#65 CCC(O)c1cc2c(cc1NC(=O)c1cccs1)OCCO2 (centres undefined)
#66 CCN(CC)CCNC(=O)c1ccc2c(=O)n(CCc3ccccc3)c(=O)[nH]c2c1
#67 CN1CCN(C(=O)c2ccccc2N(Cc2ccccc2)S(C)(=O)=O)CC1
#68 C=CCOc1c(Br)cc(CNn2nnnc2N)cc1OCC
#69 Clc1ccc2nc(N3CCN(c4ccccc4)CC3)sc2c1
#70 COc1ccccc1C1/C(=C(/O)c2ccccc2)C(=O)C(=O)N1CCO (centres undefined)
#71 COc1cc(C2C3=C(CC(C)(C)CC3=O)N(C)C(=O)N2C)cc(OC)c1OC (centres undefined)
#72 Cn1c(SCC(=O)Nc2nccs2)nnc1C12CC3CC(CC(C3)C1)C2
compound no.	65	66	67	68	69	70	71	72
Bst PK mod	>57	>57	>57	>57	>57	>57	>57	>57
YjeE inh	i	i	i	i	i	i	i	i

#73 COc1cc(C(=O)Nc2cc(C)c(OCC(=O)N3CCOCC3)c(C)c2)cc(OC)c1OC
#74 O=C(NCC(=O)N(CCN1CCOCC1)C(C(=O)NC1CCCC1)c1cccnc1)c1cccs1 (centres undefined)
#75 Cc1c(C(=O)N2CCN(c3ccccn3)CC2)sc2ncnc(N3CCN(c4ccccc4)CC3)c12
#76 O=C(Cc1ccc(Cl)cc1)NCC(=O)N1CCCC1
#77 COc1ccc(C2CCCN2C(=O)Nc2cccc(C(C)=O)c2)cc1OC (centres undefined)
#78 CCOCC(=O)Nc1cc(-c2cn3cccnc3n2)ccc1C
#79 COCCSc1ccccc1C(=O)Nc1ccncc1
#80 Cc1cc2c(c(=O)n1CCc1ccccc1)C(C(C)C)C(C#N)=C(N)O2 (centres undefined)
compound no.	73	74	75	76	77	78	79	80
Bst PK mod	·	>57	>57	>57	>57	>57	>57	>57
YjeE inh	i	i	i	i	i	i	i	i

#81 Cc1cccc(-c2nnc3n2N=C(c2ccccc2)CS3)c1
#82 O=C(NCc1ccccn1)c1coc(=O)c(Br)c1
#83 COC(=O)c1ccc(C(/C=C/[C@@H](C)C(=O)N[C@H](C)CO)NC(=O)OCc2ccccc2)cc1 (some centres undefined)
#84 O=C(O)/C(=C\c1ccc(O)cc1)c1cccc2ccccc12
#85 CC(C)(CO[C@H]1C[C@H]2CC[C@@]1(C)C2(C)C)[N+](=O)[O-]
#86 Cc1cccc(NC(=O)CN(C)S(=O)(=O)c2cccc3cccnc23)c1
#87 O=c1cc(CSc2nnc(COc3ccc(Cl)cc3)o2)c2ccccc2[nH]1
#88 Cc1ccc(-n2c(O)cnc2Nc2nc(C)cc(C)n2)cc1
compound no.	81	82	83	84	85	86	87	88
Bst PK mod	>26	>26	·	·	·	·	>57	>57
YjeE inh	·	·	i	i	i	i	i	i

#89 CCCN1C2=NCCN2c2cc(C)c(C)cc21
#90 Nn1cnnc1SC1CCCCC1NS(=O)(=O)c1ccccc1 (centres undefined)
#91 CCOC(=O)C1CCCN(S(=O)(=O)c2ccc(OC)c3ccccc23)C1 (centres undefined)
#92 Cc1nc(NCc2ccco2)c2c3c(sc2n1)CCC3
#93 O=C(Nc1cc(=O)c2ccccc2o1)N1CCOCC1
#94 CC(C)NC(=O)N1CCC2(CC1)CCN(C(=O)c1ccncc1)CC2
#95 COc1ccc(CN2CCN(S(=O)(=O)c3ccccc3)CC2)c(OC)c1
#96 O=C(CN1CCN(S(=O)(=O)c2ccccc2)CC1)Nc1cccc(C(F)(F)F)c1
compound no.	89	90	91	92	93	94	95	96
Bst PK mod	>57	>57	·	·	·	·	>57	>57
YjeE inh	i	i	i	i	i	i	i	i

#97 OC[C@@H](O)CNc1ncnc2ccccc12
#98 CCCc1cc(=O)n2[nH]c(-c3ccc(Br)cc3)cc2n1
#99 Cc1noc(/C=C/N(C)C)c1S(=O)(=O)N1CCN(c2ccccc2)CC1
#100 Cc1cccc(Cn2c(C(C)O)nc3ccccc32)c1 (centres undefined)
#101 CCC(=O)N1CCc2cc(S(=O)(=O)NCCC(=O)N3CCN(Cc4ccccc4)CC3)ccc21
compound no.	97	98	99	100	101
Bst PK mod	·	·	·	>57	>57
YjeE inh	i	i	i	i	i
